HPGD inh: inhibitors of human 15-hydroxyprostaglandin dehydrogenase (HPGD); P15428; purified HPGD, NADH fluorescence kinetic, PGE2 substrate; Potency, µM, without a hit: top-dose activity change, negative = inhibition, most hits filed as inhibitors; 150,000 compounds, 4.3% hits; AID 894; active = well fitted inhibition curve with a large enough effect (not every such curve was filed as active); inconclusive = small, poorly fitted or top-dose-only effect, or another doubt; inactive = no such curve, though single readings can be large or run the other way;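 note: top concentration of the series not given in the record; plate controls included wells without enzyme; inactives centre near -10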
Target sequence (P15428 whole entry, looked up): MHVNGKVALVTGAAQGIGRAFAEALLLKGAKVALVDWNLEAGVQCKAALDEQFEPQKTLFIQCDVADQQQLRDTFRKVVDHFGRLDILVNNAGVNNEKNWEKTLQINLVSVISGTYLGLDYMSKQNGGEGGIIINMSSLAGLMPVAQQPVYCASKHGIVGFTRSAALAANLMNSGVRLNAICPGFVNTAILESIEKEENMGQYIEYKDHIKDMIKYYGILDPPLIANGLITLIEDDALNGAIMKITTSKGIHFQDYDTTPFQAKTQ
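NADH formation kinetics: reaction with 30 uM PGE2 and 1 mM NAD+ (final), 20 nM enzyme, Tris-HCl pH 8 with Tween 20, after 15 min compound preincubation at room temperature. Fluorescence change, last versus first of five reads.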
Starred values were filed as active, the others as inactive; ? = inconclusive; & = joins results of further samples. % is set by controls: 0 for no effect and ±100 for the full control effect; potency is the fitted concentration of half-maximal effect. Some of the compounds tested. The share of hits here may be higher or lower than overall.

nr	structure	HPGD inh
1	NC[C@@H]1O[C@H](O[C@H]2[C@H](O)[C@@H](O[C@H]3[C@H](O)[C@H](N)C[C@H](N)[C@H]3O[C@@H]3O[C@H](CO)[C@@H](O)[C@H](O)[C@@H]3N)O[C@H]2CO)[C@@H](N)[C@H](O)[C@@H]1O	2%
2	COc1ccccc1NC(=O)c1cc2n(n1)C(C(F)(F)F)CC(c1ccc3c(c1)OCO3)N2 (stereo unspecified)	?
3	O=C(CN1CCCCC1)Nc1nnc(-c2ccc([N+](=O)[O-])cc2)s1	-15%
4	CCOC(=O)C1=C(O)/C(=C\c2ccc(OC)c(OC)c2)N=C1C	-12%
5	O=C1CC(N(O)c2ccccc2)C(=O)N1c1cc(Cl)cc(Cl)c1 (stereo unspecified)	-7%
6	Cc1occc1C(=O)N/N=C/c1ccc(Cl)c([N+](=O)[O-])c1	-4%
7	C1=C(CCNc2ncnc3c2[nH]c2ccccc23)CCCC1	-25%
8	Cc1ccc(-n2ncc3c(NCc4ccccn4)ncnc32)c(C)c1	13µM*
9	COc1ccccc1/C=C/C=N/NC(=O)c1ccc(=O)n(C)c1	?
10	CCOc1cc2nc(-c3ccc(OC)c(OC)c3)nc(NCCCN3CCOCC3)c2cc1OC	-27%
11	CC(=O)Oc1ccc2ccccc2c1C(NC(=O)Cc1ccccc1)c1ccccc1 (stereo unspecified)	-1%
12	O=C(CC1Sc2ccccc2NC1=O)OCc1cc(=O)oc2cc(O)ccc12 (stereo unspecified)	?
13	CC(C)C1=CC2=CCC3[C@@](C)(CCC[C@@]3(C)C(=O)O)C2CC1 (stereo partly specified)	-7%
14	CCN(CC)S(=O)(=O)c1ccc(-c2nnc(SCC(=O)N3CCc4ccccc43)o2)cc1	6%
15	COC(=O)c1ccc(CNC(=O)CSc2nnc(COc3ccccc3)n2C)o1	-1%
16	O=C(NC(=S)NCc1cccnc1)c1ccccc1[N+](=O)[O-]	-6%
17	COCCN1CN(S(=O)(=O)c2ccc(Cl)cc2)c2nc3ccccc3nc21	-8%
18	COc1ccccc1/C=C/C=N/NC(=O)CCn1nnc2ccccc21	-10%
19	CCC(=O)Oc1ccc2c(C)cc(=O)oc2c1C(=O)c1ccccc1	-15%
20	CSc1nnc(CNC(=O)c2ccccc2)n1-c1cccc(C)c1	0%
21	Cc1cc(NC(=O)CCC(=O)NNC(=O)c2ccc(C(C)(C)C)cc2)no1	-14%
22	COc1ccc(C)cc1S(=O)(=O)N(CC(N)=O)Cc1ccccc1	-18%
23	C=CCOc1ccccc1/C=N/O	16µM*
24	CCOC(=O)C12CC1/C(=N/O)c1ccccc1O2 (stereo unspecified)	-11%
25	CCOC(=O)c1nc2sc3c(c2c(=O)[nH]1)CCCC3	?
26	Cc1ccc(C(=O)N(CN2CCCC2=O)c2ccc(F)cc2)cc1	-6%
27	COc1ccc(OC)c(NC(=O)C2CCN(c3cc(-c4ccccc4)nc4ncnn34)CC2)c1	-5%
28	Cc1nccn1-c1cc(C(C)(C)C)nc2c(-c3ccccc3)cnn12	-17%
29	COC(=O)c1ccc(C23CC4(C2)[C@H](CN(Cc2cccnc2)[C@@H]4c2ccccc2)C3c2ccc(C(F)(F)F)cc2)cc1 (stereo partly specified)	-10%
30	COC(=O)COc1cc(Br)c(/C=C2/SC(=O)N(CC(=O)N3CCCC3)C2=O)cc1OC	-23%
31	O=C(O)c1cccc2c1C(=O)N(Cc1ccncc1)C2	-6%
32	CCOC(=O)c1sc2nc3n(c(=O)c2c1C)CCC3	-11%
33	O=C(Nc1ccc(Cl)cc1C(=O)N1CCOCC1)c1ccco1	-3%
34	S=C(NCCc1ccccc1)Nc1ccccn1	-5%
35	COc1ccccc1N1CCN(C(=O)CSc2nc3ncnc(N)c3[nH]2)CC1	-12%
36	COc1ccc(OC)c2[nH]c(=O)c(CCNC(C)=O)cc12	-4%
37	COc1ccc(OCc2ccc(C(=O)NN)cc2)cc1	-26%
38	Clc1ccc(CN2CCN(c3ncnc4scc(-c5cccs5)c34)CC2)cc1	-10%
39	COc1ccc(C2CC(c3ccc(Cl)cc3)=NN2C(=O)c2cccc([N+](=O)[O-])c2)cc1 (stereo unspecified)	-16%
40	CCCC1C(C#N)=C(N)Oc2n[nH]c(C(C)(C)C)c21 (stereo unspecified)	3%
41	Cc1cc(=O)[nH]c(-n2nc(C)c(Oc3ccccc3O)c2C)n1	-9%
42	CCn1cc([N+](=O)[O-])c(C(=O)Nc2ccn(Cc3ccccc3F)n2)n1	-6%
43	CCc1nnc(NC(=O)c2c(O)c3cccc4c3n(c2=O)CC4)s1	-18%
44	COc1ccc(-c2nnc(SCC(=O)c3ccco3)n2-c2ccccc2)cc1	-11%
45	CC(C)Cn1c(N)c(C(=O)CSc2ncnc3sc4c(c23)CCCC4)c(=O)n(C)c1=O	-13%
46	COc1ccc(Nc2nnc(SCc3cc(=O)n4ccsc4n3)s2)cc1	32µM*
47	O=C(Nc1cccc(OC(=O)c2cccnc2)c1)c1cccnc1	-13%
48	COC(=O)c1c(NC(=O)Nc2ccc(Cl)cc2)sc(C)c1C	-22%
49	COc1ccccc1CNS(=O)(=O)c1c(C)noc1C	-6%
50	Cc1ccccc1NN=Nc1nc2c([nH]1)c(=O)n(C)c(=O)n2C	?
51	CCC(=O)N1CCc2cc(Br)cc(S(=O)(=O)NCc3ccco3)c21	-10%
52	O=Nc1c(O)n(Cc2ccc(Cl)c(Cl)c2)c2ccccc12	?
53	O=C(CN1C(=O)/C(=C/c2ccccc2)SC1=S)Nc1ncc(Cc2ccccc2)s1	-18%
54	Cc1ccc(C2=NC(C(F)(F)F)(C(F)(F)F)c3c(n(-c4ccc(F)cc4)c(=O)[nH]c3=O)N2)cc1	-9%
55	CCNC(=O)COC(=O)/C=C/c1ccccc1[N+](=O)[O-]	-17%
56	CCCN(CCC)C1=N/C(=C\c2ccco2)C(=O)N1c1ccccc1	?
57	O=C1NC(c2ccc(-c3ccccc3[N+](=O)[O-])o2)C(C(=O)c2ccc(F)cc2)C(O)(C(F)(F)F)N1 (stereo unspecified)	-3%
58	CC(C)CN1CCCC2(CCN(C(=O)c3cccn3C)CC2)C1	-7%
59	CC(Cc1ccccc1)C(=O)N[C@@H](CO)Cc1ccccc1 (stereo partly specified)	-10%&-1%
60	CCN(CC)C(=O)CSc1nnc(CNc2ccc(F)cc2)n1Cc1ccco1	0%

(cont.)
nr	structure	HPGD inh
61	O=C1c2cccc3c(Cl)ccc(c23)C(=O)N1O	-10%
62	N#Cc1ccccc1CSc1nc(N2CCCCC2)nc(N2CCCCC2)n1	-10%
63	C[C@@H](C(=O)O)[C@@H]1C[C@@]1(C)[C@@H](NC(=O)OCc1ccccc1)c1ccccc1	-1%&-9%
64	Cc1oc(-c2ccccc2F)nc1CS(=O)(=O)CC(=O)NC1CCCC1	-5%
65	COCCNC(=O)c1ccc2c(c1)NC(=O)CS2	35µM*
66	O=C(CNC(=O)Cc1ccccc1)NCC(=O)OCC(=O)c1cccc2ccccc12	-10%
67	O=C1C(Cl)=C(NCCCO)C(=O)c2ccccc21	-13%
68	CC1(C)O[C@H]2OC([C@H](O)CON3C(=O)c4ccccc4C3=O)[C@H](O)[C@H]2O1 (stereo partly specified)	16µM*
69	Brc1ccc(-c2noc(CCc3ccccc3)n2)o1	-11%
70	CCOC(=O)c1ccc(-c2ccc(C(=O)Nc3cccnc3)o2)cc1	-28%
71	Cn1c(SCC(=O)Nc2ccc3cn[nH]c3c2)nnc1-c1cccs1	-1%
72	Cc1ccc(CNC(=O)C2CCN(S(=O)(=O)c3c(C)noc3/C=C/c3ccco3)CC2)cc1	-12%
73	c1cc2nc(C34CC5CC(CC(C5)C3)C4)[nH]c2cn1	2%
74	CCCc1cc(=O)[nH]c(SCC(=O)N(C)CC(=O)Nc2ccc(C)cc2)n1	1%
75	CN(Cc1cc([N+](=O)[O-])c2cccnc2c1O)C1CCCCC1	-8%
76	CCOc1ccccc1CN1C(=O)c2ccccc2C1C(=O)NC(C)CC (stereo unspecified)	2%
77	Cc1cc(C)nc(NC2=NCC(=O)N2c2ccccc2Br)n1	-13%
78	Cn1c(=NC(=O)c2ccc(S(=O)(=O)N3CCCc4ccccc43)cc2)sc2cc(S(C)(=O)=O)ccc21	?
79	Cc1ccc(-c2nn(CC(N)=O)c(=O)c3ccccc23)cc1S(=O)(=O)N(C)C	-8%
80	Cc1ccccc1OCC(=O)NC(=S)Nc1ccc(S(=O)(=O)NC2CCCCC2)cc1	-19%
81	O=C(CSc1nc2cc(Cl)ccc2s1)Nc1cccc(S(=O)(=O)N2CCOCC2)c1	-11%
82	CCn1c(CSc2nc(C)cc(C)n2)nnc1SCC(=O)Nc1nc(-c2ccccc2)cs1	-11%
83	CCOc1ccc(NC(=O)CN2CCN(CC(=O)c3ccc(OCC)cc3)CC2)cc1	-20%
84	Cc1cc(C)n(-c2nc(-c3ccc(Cl)c(Cl)c3)cs2)n1	-3%
85	O=C(Nc1ccc2ccccc2c1)C(c1ccccc1)C1CCCC1 (stereo unspecified)	-2%
86	Cc1ccccc1N1C(S)=C(C#N)C(=O)NC1c1cccs1 (stereo unspecified)	-30%
87	CCCCn1c(SCC(=O)NCc2ccco2)nc2ccc(N3CCOCC3)cc2c1=O	?
88	Cn1c(=O)c2[nH]c([C@@H]3CC(=O)C[C@H](c4nc5c([nH]4)c(=O)n(C)c(=O)n5C)N3)nc2n(C)c1=O	-12%
89	CC1=C(C(=O)O)N2C(=O)[C@@H](NC(=O)C(N)C3=CCC=CC3)[C@H]2SC1 (stereo partly specified)	-25%
90	CCCCOc1ccc(C(C)NC(=O)CCS(=O)(=O)Cc2ccccc2Cl)cc1 (stereo unspecified)	6%

Compounds above that have a thiophene ring, fused or not, in the order listed:
nr	structure	HPGD inh
25	CCOC(=O)c1nc2sc3c(c2c(=O)[nH]1)CCCC3	?
32	CCOC(=O)c1sc2nc3n(c(=O)c2c1C)CCC3	-11%
38	Clc1ccc(CN2CCN(c3ncnc4scc(-c5cccs5)c34)CC2)cc1	-10%
45	CC(C)Cn1c(N)c(C(=O)CSc2ncnc3sc4c(c23)CCCC4)c(=O)n(C)c1=O	-13%
48	COC(=O)c1c(NC(=O)Nc2ccc(Cl)cc2)sc(C)c1C	-22%
71	Cn1c(SCC(=O)Nc2ccc3cn[nH]c3c2)nnc1-c1cccs1	-1%
86	Cc1ccccc1N1C(S)=C(C#N)C(=O)NC1c1cccs1 (stereo unspecified)	-30%

Next section
nr	structure	HPGD inh
91	CC(=O)C1=C(C)N(Cc2ccccc2)C(=O)N[C@H]1c1cccc(F)c1	-6%
92	CCCc1c(OCCCOc2ccc(OCC(=O)O)cc2)ccc(C(C)=O)c1O	-12%
93	COc1ccc(NC(=O)CN(C2CCCCC2)S(C)(=O)=O)cc1OC	-11%
94	Cc1cc(Br)ccc1NCc1ccccn1	-8%
95	COc1ccc(NC(=O)c2cc(Br)ccc2Cl)c(OC)c1	-9%
96	C=CC1=C2C=C(C3CC3)N(C3CCCCC3)C=C2C(=O)C(C)(OC(=O)c2ccco2)C1=O (stereo unspecified)	-2%
97	COCCOC(=O)c1c(C)n(C)c2ccc(OC(=O)C3CC3)cc12	-16%
98	CCCn1c(N)c(Sc2ccc(Cl)cc2)c(=O)n(CCC)c1=O	-5%
99	CCOc1ccc(NC(=O)CCCc2cc(-c3ccc(OCC)cc3)on2)cc1	-16%
100	N/C(=N\OC(=O)Cc1cccs1)c1ccc(Br)cc1	-16%
101	CN(C)C(=O)CCc1nc(-c2ccc(C(C)(C)C)cc2)no1	-15%
102	Cc1ccc(C(=O)CN(C(=O)c2ccc(Cl)c(Cl)c2)N2C(=O)C3CCCCC3C2=O)cc1C (stereo unspecified)	-13%
103	CCC(=O)N1c2ccc(S(=O)(=O)CCC(=O)NCc3cccs3)cc2CC1C (stereo unspecified)	-18%
104	CCOc1ccc(-c2nc(-c3ccc(OC)cc3)no2)cc1OCC	?
105	COc1cc(NS(=O)(=O)c2ccc(N/C=C\C(=O)c3ccc(OC)c(OC)c3)cc2)nc(OC)n1	?
106	Cc1cc(O)c(C=Nc2ccc(Cl)cn2)c(=O)o1	-22%
107	COC(=O)C1=C(NC(C)=O)CCS1	-12%
108	CCOC(=O)c1c(C)[nH]c(C(=O)CSc2nnc(-c3ccncc3)n2CC)c1C	-3%
109	CC(C)CNC(=O)c1ccccc1NC(=O)c1ccc(CSc2ccccc2)cc1	?
110	O=C(O)C1CCCN1S(=O)(=O)c1ccc(Br)s1 (stereo unspecified) (tested in a mixture with another compound)	-5%
111	CC(C)(C)C(=O)Nc1ccccc1C(=O)NCc1ccco1	-29%
112	CCc1ccccc1N(CC(=O)N/N=C/c1ccc(OC(=O)OC)c(OC)c1)S(C)(=O)=O	-3%
113	COc1cc(C(C)=O)ccc1Oc1ncnc2c1cnn2-c1ccc(F)cc1	16µM*
114	CC(CN1CCCCC1)OC(=O)c1cc2ccccc2o1 (stereo unspecified)	-13%
115	CC(=O)N1CCN(c2ccc(NC(=O)c3ccccc3Br)cc2Cl)CC1	16µM*
116	O=C(NNc1nc(-c2ccccc2)c2cc(Br)ccc2n1)c1ccc(S(=O)(=O)N2CCCCC2)cc1	-15%
117	CC(C)(C)NC(=O)Cc1ccc(S(=O)(=O)N2CCCC2)s1	-5%
118	CC1(c2ccccc2)NC(=O)N(CC(=O)Nc2ccc3c(c2)OCO3)C1=O (stereo unspecified)	-4%
119	O=C(COC(=O)/C=C/c1ccco1)Nc1ncc(C(F)(F)F)cc1Cl	-12%
120	COc1cccc(NC(=O)COC(=O)c2ccccc2F)c1	-20%
121	O=C1C2CCCCC2C(=O)N1c1ccc(NC2CCCCC2)c([N+](=O)[O-])c1 (stereo unspecified)	-29%
122	Cc1nonc1OCCNC(=O)C12CC3CC(CC(C3)C1)C2	-6%

Screens (PubChem BioAssay)
